Screens: PubChem, National Center for Advancing Translational Sciences (NCATS)
CtBP-E1A inh: blocks the CtBP interaction with E1A | 340,000 tested, 0.49% active | activity change, % (no concentration beside the values) | AlphaScreen GST-E1A/His-CtBP binding, 1536-well; stronger effect = lower value; control for the full effect not named in the record; in the data active means activity change below about -65%; inconclusive means about -30% to -65%; inactive means above about -30%; also: % is scaled to controls: 0 for no effect and ±100 for the full control effect; compound concentration not given in the record
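In 5 uL wells, 23 nL compound meets equimolar GST-E1A and His-CtBP (5X stock 125 nM each) for 2 h, 37 °C. Beads (5X, 50 ug/mL) then 1 h, 37 °C, dark.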
D2 PAM: positive allosteric modulators of human D2 dopamine receptor. P14416. 360,000 tested, 0.23% active. potentiation, % (concentration not given with the values). DiscoveRx D2 beta-arrestin cells, luminescence, 90 min; 100% = 57 uM dopamine signal; active = potentiation of 50% or more; inconclusive = 30% to 50%; inactive = 30% or less;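 also: compound concentration not given in the record; tested on top of an EC20 dose of dopamine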
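D2 cells co-treated with compound plus 50 nM dopamine (EC20) for 90 min at 37 deg C to detect potentiation. Beta-arrestin recruitment was read as enzyme-fragment luminescence after 1 h at ambient temperature. Full response was set by 57 uM dopamine.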
TRPV1 potentiator: enhances activation of the human vanilloid receptor TRPV1 | Q8NER1 | potentiation, % at 8.33 µM | TRPV1-expressing cells, Fluo-8 calcium influx, capsaicin EC20 potentiation; host cell line not named in the record; control for the full effect not named in the record | 320,000 tested, 0.02% active; active means potentiation above 80%; inconclusive means 30% to 80%; inactive means below 30%; also: 0% is about no effect
Target sequence (Q8NER1 whole entry, looked up): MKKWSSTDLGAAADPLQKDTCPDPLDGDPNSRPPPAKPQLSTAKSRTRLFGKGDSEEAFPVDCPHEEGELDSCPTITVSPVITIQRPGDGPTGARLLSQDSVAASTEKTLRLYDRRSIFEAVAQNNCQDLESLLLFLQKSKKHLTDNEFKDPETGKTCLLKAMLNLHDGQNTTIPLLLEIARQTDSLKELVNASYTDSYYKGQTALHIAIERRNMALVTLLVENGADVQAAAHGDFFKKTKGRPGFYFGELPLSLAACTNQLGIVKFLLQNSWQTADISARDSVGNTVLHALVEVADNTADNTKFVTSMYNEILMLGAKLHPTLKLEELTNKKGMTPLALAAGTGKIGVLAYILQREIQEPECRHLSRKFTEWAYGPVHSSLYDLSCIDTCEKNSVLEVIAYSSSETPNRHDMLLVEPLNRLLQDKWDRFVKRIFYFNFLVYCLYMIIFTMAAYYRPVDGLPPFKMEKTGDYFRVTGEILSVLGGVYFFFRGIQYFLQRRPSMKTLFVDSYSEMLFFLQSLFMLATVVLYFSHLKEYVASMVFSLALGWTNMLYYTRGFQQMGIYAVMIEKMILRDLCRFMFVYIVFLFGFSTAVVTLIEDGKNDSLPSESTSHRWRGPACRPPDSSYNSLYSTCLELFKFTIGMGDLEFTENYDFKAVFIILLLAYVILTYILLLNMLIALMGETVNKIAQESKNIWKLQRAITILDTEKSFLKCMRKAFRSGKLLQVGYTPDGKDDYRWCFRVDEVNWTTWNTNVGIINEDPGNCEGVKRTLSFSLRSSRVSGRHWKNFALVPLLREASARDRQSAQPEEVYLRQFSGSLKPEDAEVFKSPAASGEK
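Cells expressing TRPV1 were dye-loaded with Fluo-8 and read kinetically: 10 s baseline, 3 min after compound (agonist portion), then 2 min after EC20 capsaicin (allosteric enhancer portion). Calcium-bound dye fluorescence at 480/520 nm.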
TRPML1 blocker: inhibitors of human TRPML1 channel; activity change, negative = inhibition, % (no concentration beside the values); TRPML1-inducible cells, Ca2+ dye fluorescence, FDSS; stronger effect = lower value; inhibition of EC80 agonist-evoked calcium signal; 390,000 tested, 0.02% active; in the data active means activity change below about -50%; inconclusive means about -30% to -50%; inactive means above about -30%;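 also: stimulus is agonist 54-4 at its EC80 concentration; % is scaled to controls: 0 for no effect and ±100 for the full control effect; compound concentration not given in the record; the text of the record puts the active cut at -80%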
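TRPML1-DL cells, Tet-induced overnight (~16 h, 37 °C) at 1,500 cells/well, were loaded with Ca8 no-wash dye plus quencher for 45-90 min at room temperature. Compounds were pinned during FDSS kinetic reading; agonist 54-4 at EC80 (4 uM final) then added.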
TRPML1 ag: agonists of human TRPML1 channel. activation, % (no concentration beside the values). TRPML1-expressing cells, Ca2+ dye fluorescence, FDSS; host cell line not named in the record; reference of the full effect not given here. Q9GZU1. 410,000 tested, 0.12% active. AID 624414; in the data active = activation above about 50%; inconclusive = about 30% to 50%; inactive = below about 30%; also: 0% is about no effect; the text of the record puts the active cut at 80%
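TRPML1-DL cells, Tet-induced overnight (~16 h, 37 degrees C), loaded 45-90 min at room temperature with Ca8 no-wash calcium dye plus quencher. FDSS fluorescence: 10 s baseline, compound pin-transfer, 110 s agonist read, then EC80 54-4 (4uM final) and 110 s antagonist read.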
Six1-Eya2 blk: Six1/Eya2 interaction inhibition; Q15475+O00167; AlphaScreen GST-Six1/His-Eya2 binding, biochemical; stronger effect = lower value; control for the full effect not named in the record; activity change, % (concentration not given with the values); 360,000 tested, 0.56% active; in the data active = activity change below about -65%; inconclusive = about -30% to -65%; inactive = above about -30%; also: % is scaled to controls: 0 for no effect and ±100 for the full control effect
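Six1/Eya2 binding was read as AlphaScreen signal after compounds were pinned into GST-Six1 plus His-tagged Eya2 (5X stock 250/500 nM) in pH 8.0 Tris/NaCl/TCEP buffer, beads added, then incubated 1 h, 37 C, dark.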
* = called active by the depositor; ? = inconclusive; . = not tested or not shown.

Structure,CtBP-E1A inh,D2 PAM,TRPV1 potentiator,TRPML1 blocker,TRPML1 ag,Six1-Eya2 blk
Cc1ccc(NC(=O)COC(=O)Cn2nc(C)c([N+](=O)[O-])c2C)c([N+](=O)[O-])c1,.,-8,-21,1,-0.1,9
O=S(=O)(NC1CCCC1)c1ccc(S(=O)(=O)N2CCN(c3ccccc3)CC2)cc1,4,-9,3,-1,0.6,-2
CCN(C[C@H]1N[C@@](C)(C(=O)OC)[C@H]2C(=O)N(C)C(=O)[C@@H]12)C(=O)Nc1ccc(C(F)(F)F)cc1,-8,.,.,13,0.0,8
COC(=O)c1sc(C(F)(F)F)c(-c2ccccc2)c1S(=O)(=O)N(C)C,8,-13,-9,4,1.4,2
O=C1CCCC2=C1C(c1ccccc1)n1c(s/c(=C/c3cccc(F)c3)c1=O)=N2 (stereo not given),2,-2,26,-8,-0.4,2
COc1ccccc1C(=O)NC(CCSC)C(=O)OCC(=O)c1ccc[nH]1 (stereo not given),-4,-1,4,-19,0.0,-3
COc1ccc(-n2c(O)c(Cc3ccccc3)c(=O)n3nc(-c4ccccc4)c(=O)cc23)cc1,2,-22,8,42,-0.5,-1
CC(=O)c1cccc(-c2ccnc3c2CC(C(=O)NCCc2ccccc2)O3)c1 (stereo not given),28,1,.,.,-0.5,3
COc1cccc(NC(=O)c2nc3nc(C)cc(C(F)F)n3n2)c1,0,2,19,-10,-0.3,-3
COC(=O)c1ccn(CSc2c(F)c(F)cc(F)c2F)n1,.,6,-3,4,-0.7,2
CC(C)Cc1nc2sc3c(c2c(=O)n1N)CC(C)(C)OC3,5,1,-8,-14,-1.1,5
COc1cccc(S(=O)(=O)N(C)C[C@H]2Oc3cc(Br)ccc3S(=O)(=O)N([C@@H](C)CO)C[C@H]2C)c1,-13,4,.,-8,1.4,2
O=C(O)c1ccc(NC(=O)c2ccc3c(c2)C(=O)N(CC2CCCO2)C3=O)cc1 (stereo not given),5,-2,17,23,-0.3,-3
COc1ccc2nc(NCCCO)[nH]c2c1,0,-12,-34,13,1.2,0
CCC(C)(C)NC(=O)c1cc(S(=O)(=O)N2CCc3ccccc32)cn1C,-16,-3,13,4,-0.1,2
CCN(C[C@H]1N[C@@](CC)(C(=O)OC)[C@H]2C(=O)N(Cc3ccccc3)C(=O)[C@@H]12)C(=O)COC,5,2,.,14,5.0,12
O=C(N[C@@H](Cc1ccccc1)C(=O)N[C@@H](Cc1ccccc1)C(=O)O)OCc1ccccc1,8,-2,25,-2,0.3,1
CN(CC(=O)O)Cc1oc(CO)cc(=O)c1O,0,-12,.,-8,0.3,-5
Cc1ccccc1NC(=O)Cc1ccccc1,-6,-5,?,-7,-0.2,-6
CNC(=O)COC(=O)/C=C/c1cn(-c2ccccc2)nc1-c1ccc(C)o1,-5,7,.,-20,0.5,-5
COc1ccc(Nc2cc(C)nc(NCc3ccccc3)n2)cc1,-10,-20,-1,-19,1.2,0
O=C(NC1CCCC1)c1ccc(COCC(F)(F)F)o1,-2,-8,-15,-3,0.3,4
O=C(OCC(=O)N1CCCC1)c1cc(Cl)ccc1Cl,-16,2,-12,-4,1.0,9
Cc1ccc2nc(NCCCO)nc(-c3ccccc3)c2c1,15,-4,-10,-15,3.9,18
Cc1cc(Oc2ccccc2)nc(OCC#N)n1,-7,3,.,-8,-0.4,5
O=C(Nc1ccc([N+](=O)[O-])cc1)N1CCCCC1,.,-15,-18,14,0.4,2
Cn1cc([N+](=O)[O-])c(C(=O)Nc2ccn(Cc3c(F)c(F)cc(F)c3F)n2)n1,-3,-5,-7,0,-0.2,-11
C=CCN(C(=O)Nc1ccc(F)cc1)C1CC(=O)N(c2ccc(OC)cc2)C1=O (stereo not given),8,-6,18,13,-0.4,3
Cc1cc(=O)[nH]c(N/N=C/c2ccc(OC(=O)c3cccnc3)cc2)n1,-19,-2,-1,-16,0.2,-6
O=C(N/C(=C\c1ccc(Br)cc1)C(=O)N1CCOCC1)c1ccccc1Cl,-5,-6,7,7,0.0,4
Cc1ccc(S(=O)(=O)CCC(=O)N(CCCN2CCOCC2)c2nc3ccccc3s2)cc1,5,-39,-2,-4,-0.3,30
CCOC(=O)C1CCCN(C(=O)c2cn(CC)c3ccc(S(=O)(=O)N4CCCC4)cc3c2=O)C1 (stereo not given),-5,-6,-7,2,0.1,7
COc1ccc(-c2cc3cc(OC)c(OC)cc3c(C)n2)cc1C,11,-4,-11,.,.,3
CC1(C)Cc2c(sc(N)c2C#N)C(C)(C)N1,5,-8,9,-15,3.0,0
CCOC(=O)C1=C(O)C(=O)N(c2ccc(S(N)(=O)=O)cc2)C1c1cccc([N+](=O)[O-])c1 (stereo not given),4,2,3,0,-0.8,-4
CCc1nc2c(OCC(=O)C(C)(C)C)cccn2c1N(C)C(=O)c1ccco1,9,-9,.,.,-0.6,7
O=C(COC(=O)c1sc2ccccc2c1Cl)NCC1CCCCC1,10,-32,-3,2,-0.5,7
C/C(=N\NC(=S)Nc1cccc(C)c1)c1ccco1,-17,-10,-3,-3,-0.7,-18
O=C(CNc1cccc(S(=O)(=O)N2CCCC2)c1)Nc1cccc(Br)c1,3,11,2,-16,0.5,-9
CCC1COC(c2cccn2Cc2ccc(Cl)cc2)=N1 (stereo not given),-8,-11,-16,6,1.8,4
CCN(CC)CCn1c(/N=C/c2ccc(OC)c(OC)c2)nc2ccccc21,2,-16,.,-10,0.3,2
CCOC(=O)c1cccc(NC(=O)C(C)N2C(=O)c3ccccc3C2=O)c1 (stereo not given),0,-3,20,4,1.5,4
Clc1ccccc1Nc1nc(NCC2CC2)nc2ccsc12,4,-15,.,.,-0.9,7
O=C(COC(=O)/C=C/c1ccccc1)Nc1ccc(Cl)cn1,3,-5,-8,15,-0.6,-1
CCN(CC(=O)Nc1cc(S(=O)(=O)N2CCCCC2)ccc1Cl)Cc1ccccc1,-1,1,-8,13,-0.8,-3
O=S(=O)(c1ccccc1)N1CCN=C1SCc1ccc(Cl)cc1,.,-5,?,48,1.2,-3
COCCN(C(=O)COC(=O)Cc1cccc(OC)c1)c1c(N)n(CC(C)C)c(=O)[nH]c1=O,0,5,4,-2,0.0,3
C/C(=C\c1ccc(C)o1)C(=O)c1c(C)cc(C)[nH]c1=O,4,2,?,7,-0.4,0
CCN(C[C@H]1N[C@@](CC)(C(=O)OC)[C@H]2C(=O)N(C)C(=O)[C@@H]12)S(=O)(=O)c1ccc(C(F)(F)F)cc1,9,.,.,17,-0.7,5
O=C(O)CCCCCN1C(=O)C2CCCCC2C1=O (stereo not given),19,13,20,72,-0.9,15
COc1cc(OC)c(C(=O)Nc2cccc3ccccc23)cc1OC,.,12,8,.,.,-3
CCc1nc2c(OCCn3cccc3)cccn2c1N(C=O)Cc1ccc(OC)cc1,4,0,.,.,-0.9,4
O=C(CSc1nnc(CNC(=O)c2cccs2)o1)Nc1ccccc1,10,-5,1,6,-0.7,15
CCC1(CC)NC(=O)N(CC(=O)OCC(=O)Nc2ccc(C(F)(F)F)cc2)C1=O,3,2,-5,-11,-0.9,0
CCc1ccc(NC(=O)CSc2ccc(-c3ccco3)nn2)cc1,3,-11,17,8,-0.2,1
Cc1cccc(N/C(N)=N/c2nc(C)cc(C)n2)c1,-12,-6,.,9,?,-9
CC(C)c1ccc(NC(=O)COc2ccc(F)cc2C(=O)c2cnn(-c3ccccc3)c2)cc1,-15,-12,0,4,0.8,-1
COc1ccc(OCc2cc(C(=O)NC(C)Cc3cccnc3)no2)c(Cl)c1 (stereo not given),3,-9,3,-1,-1.5,0
O=C(Nc1c(-c2ccccc2)[nH][nH]c1=O)c1ccco1,0,-11,.,.,8.4,4
CCOc1cccc(/C=N/NS(=O)(=O)c2ccc(C)c([N+](=O)[O-])c2)c1O,12,-8,16,5,0.5,38

Fetched one by one from the list above, four records:
Structure,CtBP-E1A inh,D2 PAM,TRPV1 potentiator,TRPML1 blocker,TRPML1 ag,Six1-Eya2 blk
CCC1(CC)NC(=O)N(CC(=O)OCC(=O)Nc2ccc(C(F)(F)F)cc2)C1=O,3,2,-5,-11,-0.9,0
CCN(C[C@H]1N[C@@](CC)(C(=O)OC)[C@H]2C(=O)N(C)C(=O)[C@@H]12)S(=O)(=O)c1ccc(C(F)(F)F)cc1,9,.,.,17,-0.7,5
O=C(Nc1c(-c2ccccc2)[nH][nH]c1=O)c1ccco1,0,-11,.,.,8.4,4
O=C(CNc1cccc(S(=O)(=O)N2CCCC2)c1)Nc1cccc(Br)c1,3,11,2,-16,0.5,-9

(listing goes on)
Structure,CtBP-E1A inh,D2 PAM,TRPV1 potentiator,TRPML1 blocker,TRPML1 ag,Six1-Eya2 blk
C[n+]1cc[nH]c1SCC(=O)c1ccccc1,0,-11,14,14,0.9,0
CC(=O)c1cccc(NC(=O)c2ccc3c(Cl)c4c(nc3c2)CCCC4)c1,6,2,-10,-12,-0.5,0
Cc1nc(NC(=O)CSc2nncs2)c(Cl)cc1Cl,6,-6,7,.,.,3
O=C(NCc1cccs1)c1cc(-c2ccccn2)nc2ccc(Br)cc12,4,-2,-16,-6,-0.4,9
COc1ccc(S(=O)(=O)Nc2ccc3c(c2)C(=O)N([C@H](C)CO)C[C@@H](C)[C@@H](CN(C)S(=O)(=O)c2ccc(Cl)cc2)O3)cc1,-3,-5,.,2,0.3,-1
CCn1cc(CCCC(=O)NCc2ccc(OC)cc2)c2ccccc21,-9,-3,-14,-6,2.6,-9
C=C(C)CNC(=S)NNC(=O)CCn1c2cc(Cl)ccc2c2ccc(Cl)cc21,-3,-14,4,3,0.2,-2
CC(NC(=O)/C=C/c1ccc(Br)cc1)c1ccc(Cl)cc1 (stereo not given),12,3,-6,0,-0.9,2
CCN(CC)C(=O)Cn1cc(C(=O)C(=O)NCC2COc3ccccc3O2)c2ccccc21 (stereo not given),0,-24,-3,40,0.9,-1
Cc1cc(OCC(=O)Nc2ccncc2)ccc1[N+](=O)[O-],-12,0,-8,17,-1.6,3
CCOc1ccc(-n2c(=O)c3c(C)c(C)sc3n(CC(=O)NCc3ccco3)c2=O)cc1,5,-6,-14,-6,0.6,1
CC1(C)CC(=O)C(N=Nc2cccnc2)=C(O)C1,3,-8,21,-11,0.7,0
O=C(Cc1ccc(-c2ccccc2)cc1)NC(c1ccccc1)c1ccccc1,4,15,3,-6,0.1,7
c1ccc(C2C3=C(CCCC3)Nc3ncnn32)cc1 (stereo not given),-17,-4,2,0,0.5,-7
O=C(NCCc1ccncc1)Nc1ccccc1Cl,4,-7,-7,-3,-0.1,2
Cc1ccnc(Sc2nc3c(c(=O)[nH]c(=O)n3C)n2CCCc2ccccc2)n1,4,4,-1,19,-0.6,6
Cc1cccc(CSC2=NCCN2C(=O)c2ccco2)c1,3,-10,-12,-8,-0.4,1
Cc1cc(NC(=O)C(C)SCC(=O)OCC(=O)N(Cc2ccccc2)C(C)(C)C)no1 (stereo not given),-2,10,2,0,0.3,-8
